Ab BasE inh = inhibitors of Acinetobacter baumannii siderophore enzyme BasE | purified BasE, fluorescence polarization binding displacement | inhibition, % (test concentration not listed) | 0.1% of 84,000 active | AID 485350;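 active = both replicates above 25% with normal brightness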;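 also: 0% = negative plate control signal and 100% = positive plate control signal; stock transfer was 100 nL into about 30 µL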
LANA-nucl inh = LANA-nucleosome interaction inhibition; 0.3% of 51,000 active; z-score (no concentration beside the values); FITC-LANA1-23 / chicken nucleosome fluorescence polarization; hits give low values;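 active = both repeat wells score below -2 in polarization z-score versus plate sample wells, excluding overly bright wells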;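 also: 100 nL library stock added to about 30 µL; numbers are from one replicate; some results filed as inactive read as strong as hits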
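System – purified chicken nucleosomes with FITC-labelled LANA N-terminal peptide (1-23) · Amount – 240 nM purified chicken nucleosomes (480 nM peptide binding sites), final · Also added – 50 nM FITC-LANA1-23 probe · Medium – TEN-BT buffer, pH 7.5 · Incubation – compound with peptide–nucleosome mix 10–45 min at room temperature · Detection – fluorescence polarization, ex 480 nm, em 535 nm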
* = called active by the depositor; x = not tested or not shown; & = joins results of further samples. Not all compounds are listed (hit frequency here may not be typical).

SMILES	Ab BasE inh	LANA-nucl inh
C/C(N)=C(/C#N)C(=O)Cn1ncc(Cl)c(Cl)c1=O	3.6	x
CC(C)C(=O)NCCN1CCOCC1	-4.6	1.6
Cc1cc2c(cc1C)NC(CC(N)=O)C(=O)N2 (stereo unspecified)	1.9	x
COc1ccc(-c2nn(-c3ccccc3)cc2C#N)cc1	-0.4	0.5
O=S(=O)(Nc1ccccc1-c1ccccc1)c1cccs1	-2.6	1.5
N#CCn1c(COC(=O)CNC(=O)c2cccs2)nc2ccccc2c1=O	-7.6	x
O=C(O)C1C2C=CC(C2)C1C(=O)NCC1CCCO1 (stereo unspecified)	0.3	-0.59
CC1(C)CC(NC(=S)NCc2ccco2)CC(C)(C)N1	-3.1	0.037
CCOc1cc(/C=c2\sc3nc(=O)c(C)nn3c2=O)ccc1OC(C)=O	2.4	-0.44
COc1cc(NC(=O)CCNS(=O)(=O)c2cc(Br)cnc2N)cc(OC)c1	-0.9	1.4
CN1CCN(C(=O)NCC23CC4CC(C2)CC(CNC(=O)N2CCN(C)CC2)(C4)C3)CC1	-0.3	0.19
O=S(=O)(c1ccc(-c2cc(C(F)(F)F)ccn2)s1)N1CCCC1	0.8	x
O=C(Oc1ccc(Cl)cc1)c1sc2sccc2c1Cl	2.1	-0.73
COC(=O)Cn1c(=O)cc(N)n(Cc2ccccc2)c1=O	3.5	x
Cc1cc(O)ccc1-n1c(=O)c2cc3c(=O)n(-c4ccc(O)cc4C)c(=O)c3cc2c1=O	3.5	x
Cc1c(Cl)cccc1N1C(=O)CC(N2CCCc3ccccc32)C1=O (stereo unspecified)	-2.5	-0.42
C=C1C(=O)OCC(C)(C)N1C(=O)OCc1ccccc1	-1.5	1.1
CCCCCC(=O)N1CCN(CCn2c(CC)c3c(=O)n(-c4nc5ccccc5s4)[nH]c3cc2=O)CC1	5.8	-0.38
O=C(CCc1cccc(Cl)c1)c1cccs1	x	0.87
Cc1ccc(-c2nc3ccccc3[nH]2)cc1N	-1.2	-1.5
O=C(Cn1[nH]c(=O)c2ccccc2c1=O)NCCCSc1ccc(F)cc1	-0.2	x
c1cc(CNc2ccc(N3CCCC3)cc2)ccn1	22	-0.56
CCCc1cc(=O)[nH]c(SC(C)C(=O)c2ccccc2)n1 (stereo unspecified)	-1.3	x
COC(=O)CSc1nc(-c2ccccc2)cc(C)c1C#N	0.0	-0.14
O=C1CC2(CCCCC2)Oc2ccc(O)cc21	-1.4	-0.13
CCC[C@@H]1C[C@@H](C(=O)N[C@@H]([C@H]2O[C@H](SC)[C@H](O)[C@@H](O)[C@H]2O)[C@@H](C)O)N(C)C1	x	1.3
CCn1c(CCNC(=O)c2cccs2)nnc1SCc1ccc(Cl)c(Cl)c1	0.3	-1.2
COCc1cc(=O)[nH]c(Sc2c(-c3ccccc3)c3ccc(Cl)cc3[nH]c2=O)n1	1.3	x
COC(=O)N(C)c1ccc(C(O)(C(F)(F)F)C(F)(F)F)cc1	0.5	x
CC(C)n1c(C(F)(F)F)nc2cc(C(=O)Nc3ccc(Cl)cc3)ccc21	1.2	x
Cc1ccc(NC(=O)C2CCC(C)(C(=O)NN)C2(C)C)cc1 (stereo unspecified)	-0.1	-0.61
O=C(O)CCC/C=C\CC1C2CCC(O2)C1CNNC(=O)Nc1ccccc1 (stereo unspecified)	x	0.22
O=C(c1cccc(S(=O)(=O)NC2CCCCCC2)c1)N1CCCc2ccccc21	1.9	x
CCC(Sc1nc2ncccc2o1)C(=O)Nc1ccc(OC)c(Cl)c1 (stereo unspecified)	-0.9	-0.13
COc1cc(C2C(C#N)=C(SCC(N)=O)NC3=C2C(=O)CCC3)ccc1O (stereo unspecified)	2.1	-0.22
CCCC(=O)NCc1cn2cccc(C)c2n1	-1.3	-1.3
CC(C)CC(NS(C)(=O)=O)C(=O)O (stereo unspecified)	-0.2	x
CN(C)S(=O)(=O)c1ccc(Cl)c(C(=O)OCC(N)=O)c1	-5.5	x
CC(C)n1nnc2c(=O)oc3ccccc3c21	2.7	x
CSc1nc(NC(=O)NS(=O)(=O)c2ccccc2C(F)(F)F)nc(-c2ccccn2)n1	1.5	x

Record cards, from the list above:
Record of O=C(O)CCC/C=C\CC1C2CCC(O2)C1CNNC(=O)Nc1ccccc1 (stereo unspecified) → Ab BasE inh: x; LANA-nucl inh: 0.22
Record of O=C(Cn1[nH]c(=O)c2ccccc2c1=O)NCCCSc1ccc(F)cc1 → Ab BasE inh: -0.2; LANA-nucl inh: x

Compounds shown so far with an aryl thioether with sulfur outside any ring (7):
SMILES	Ab BasE inh	LANA-nucl inh
O=C(Cn1[nH]c(=O)c2ccccc2c1=O)NCCCSc1ccc(F)cc1	-0.2	x
CCCc1cc(=O)[nH]c(SC(C)C(=O)c2ccccc2)n1 (stereo unspecified)	-1.3	x
COC(=O)CSc1nc(-c2ccccc2)cc(C)c1C#N	0.0	-0.14
CCn1c(CCNC(=O)c2cccs2)nnc1SCc1ccc(Cl)c(Cl)c1	0.3	-1.2
COCc1cc(=O)[nH]c(Sc2c(-c3ccccc3)c3ccc(Cl)cc3[nH]c2=O)n1	1.3	x
CCC(Sc1nc2ncccc2o1)C(=O)Nc1ccc(OC)c(Cl)c1 (stereo unspecified)	-0.9	-0.13
CSc1nc(NC(=O)NS(=O)(=O)c2ccccc2C(F)(F)F)nc(-c2ccccn2)n1	1.5	x

(more compounds)
SMILES	Ab BasE inh	LANA-nucl inh
COc1ccc(C2SCC(=O)N2CCCN(C)C)cc1OC (stereo unspecified)	3.2	x
CC1=C(C)C(=O)c2ccccc2C1=O	-0.5	0.055
CC(C)c1ccc(S(=O)(=O)N2CCC(C(=O)Nc3nnc(-c4ccccc4)o3)CC2)cc1	-1.4	x
NS(=O)(=O)c1cc(C(=O)Nc2ccccc2N2CCOCC2)ccc1Cl	-0.2	x
O=C(Nc1cccnc1)c1ccc(COc2ccccc2Cl)o1	2.5	1.3
O=C(/C=C(\O)c1ccccc1)C(F)(F)C(F)F	5.8	-0.5
C=CCn1ccn(-c2cccc3ccccc23)c(=O)c1=O	-0.9	-1.1
CC(C)(C)S(=O)(=O)/C(C#N)=C/c1sccc1C1OCCO1	-1.9	x
CCOC(=O)c1cc(NC(=O)CSCC(=O)O)ccc1N1CCCCC1	0.8	-0.22
Cc1ccc(C)c(C(=O)CCC(=O)Nc2ccc(N3CCN(C)CC3)cc2C)c1	-0.6	x
CCOC(=O)c1sc2nc(CN(C)Cc3nc4ccccc4c(=O)[nH]3)[nH]c(=O)c2c1C	3.8	x
C/C(=N\O)c1c(O)c2ccccc2n(C)c1=O	0.0	x
O=C(O)c1cc(N2C(=O)C3CC=CCC3C2=O)ccc1NCc1cccnc1 (stereo unspecified)	6.0	0.039
CN1CCC(NC(=O)c2cccc(Oc3ccccc3)c2)CC1	1.2	-0.13
CCCn1c(C(O)c2cc(OC)c(OC)c(OC)c2)nc2ccccc21 (stereo unspecified)	0.5	-0.37
CCC(C)NC(=O)NCc1c(C)nn(C)c1C (stereo unspecified)	-2.3	0.58
Cc1[nH]c2ccccc2c1C(=O)C(C)OC(=O)C1CC1 (stereo unspecified)	-3.7	x
O=C1C2C(C(=O)N1C13CC4CC(CC(C4)C1)C3)C1C=CC2C12CC2 (stereo unspecified)	1.9	-1.6
CCOc1ccc(N(CC(=O)NN=C2CCCCC2)S(C)(=O)=O)cc1	2.2	0.21
O=C(Cn1nc(-c2ccc(Cl)cc2)ccc1=O)NC1CCCC1	-0.2	0.19
O=C(Nc1ccccc1)Nc1ccccc1Sc1nccc(C(F)(F)F)n1	-0.8	x
O=C(c1ccccc1)c1cnc2cc3c(cc2c1N1CCN(c2ccccc2)CC1)OCCO3	1.8	-0.87
CNC(=O)Cn1nc(C)c(S(=O)(=O)N(C)C)c1C	1.4	x
CC(C)CC(=O)Nc1ccc(C(=O)Cn2nnc(-c3ccccc3)n2)cc1	-2.8	x
Cc1cc(=O)n(CC(=O)NC2CCCCC2)c2c1c(C)nn2-c1ccccc1	2.1	0.56
CC(C)C(=O)c1cn(CC(=O)NCc2cccs2)c2ccccc12	-0.6	-2
Cc1cc(C(=O)O/N=C/c2c(Cl)cccc2Cl)nn1C	0.8	-0.31
O=C(NCCc1ccccn1)c1cc(Cl)ccc1Cl	5.4	x
Cc1ccc(Nc2nc(C)cc(C)n2)c(C(=O)O)c1	3.1	-0.12
COc1cc(C2N(c3cc(C)on3)C(=O)C3CCCN32)cc(OC)c1OC (stereo unspecified)	2.1	-0.56
O=C(Cn1cc(S(=O)(=O)Cc2ccccc2)c2ccccc21)Nc1ccon1	0.5	0.026
CCn1c(CC(=O)Nc2ccccc2)nnc1SC(C)C(=O)Nc1ccc2c(c1)OCO2 (stereo unspecified)	-0.9	2.9
CCCN(CCC)S(=O)(=O)c1ccc(C(=O)O)cc1	-0.8&-1.2	0.24&-0.13&-0.84
COc1ccc(-n2cc(C(=O)NC(C)Cn3c(=O)oc4ccccc43)nn2)cc1 (stereo unspecified)	0.8	1.2
CCOC(Cn1c(SCC(=O)Nc2cc(C)on2)nc2ccccc2c1=O)OCC	0.4	-0.02
CC1CCCCC1NC(=O)CSc1ccccc1 (stereo unspecified)	2.6	-1.2
O=C(CSc1nnnn1-c1ccc2c(c1)OCCO2)NC1CCCC1	0.6	-0.56
C/C(=N/OC(=O)c1ccccc1)c1oc(C)nc1C	3.5	-1.1
Cc1ccc(O)c(CNc2cccc3cccnc23)c1	-2.4	0.3
Cc1ccc2nc(SC(C)C(=O)N3CC(C)OC(C)C3)[nH]c2c1 (stereo unspecified)	-4.3	x
Cc1ccc(-c2nn(-c3ccccc3)cc2C(=O)N2CCCc3ccccc32)o1	-0.9	x
CCN1CCSc2ccc(C(=O)N3CCC(C)CC3)cc21	1.1	0.17
O=C(/C=C/c1ccccc1)Oc1ccccc1	-0.4	x
OCCN=Cc1[nH]c2ccccc2c1O	11	-1.3
O=C(O)P(=O)(O)O	3.3	0.28&-0.39
CC(C)=C1SC(=O)NC1=O	-0.8	x
CCC(C(=O)c1ccccc1)n1nc(-c2cccs2)ccc1=O (stereo unspecified)	-1.4	1.1
c1nc(NCCCN2CCOCC2)c2c3c(sc2n1)CCCC3	-0.4	x
Cc1ccc(SCc2[nH]n(-c3nc4ccccc4s3)c(=O)c2C=NCc2ccco2)cc1	3.2	x
O=C1N/C(=N\S(=O)(=O)Cc2ccccc2)S/C1=C\c1ccco1	4.1	-1.2
Cc1ccc(-c2ccc(C#N)c(=O)n2CC(=O)N2CCNC(=O)C2(C)C)cc1	1.2	-0.35
O=C(Cn1cnc2ccccc2c1=O)Nc1ccccc1	-0.2	-0.98
O=C(c1ccncc1)N1CCN(C(=O)c2ccncc2)CC1	-0.5	-0.65
N#Cc1cccc(C(=O)NC2CCCC2)c1	1.4	x
Cc1ccsc1/C=N/NC(=O)CSc1nnc(-c2ccccc2)n1-c1ccccc1	1.0	0.044
Cc1cccc(-c2nnc(SCC(=O)C34CC5CC(CC(C5)C3)C4)n2Cc2ccco2)c1	-0.7	x
COc1ccc(CNc2nc(-c3cccs3)c(C#N)c(=O)n2C)cc1	0.9	x
CCNS(=O)(=O)c1ccc2c(c1)oc(=O)c1cc(S(=O)(=O)NCC)ccc12	1.2	0.15
O=C(O)/C=C/C(=O)N1CCN(c2ncnc3scc(-c4ccccc4)c23)CC1	-3.3	x
Cn1cc(NC(=O)N2CCCc3ccccc32)c2ccccc2c1=O	0.3	0.093
Following part:
SMILES	Ab BasE inh	LANA-nucl inh
CS(=O)(=O)N1CCCc2cc(C(=O)N(CC(=O)Nc3ccccc3C(F)(F)F)Cc3ccco3)ccc21	-0.2	x
Cc1cc(=O)n2ncnc2n1CC(=O)NN	-3.0	x
CCCNC(=O)Nc1ccc2nc(N3CCN(C)CC3)cc(C)c2c1	-0.6	x
O=C(N/N=C\c1ccncc1)c1ccc(COCC(F)(F)F)cc1	-2.5	2.6
CCc1nnc(NC(=O)CCc2cccs2)s1	0.4	0.061
O=C(/C=C/c1ccco1)N/C(=C\c1ccc2c(c1)OCO2)C(=O)N1CCCCCC1	-1.4	0.035
C[C@H]([C@H](C)N1CC(=O)NC(=O)C1)N1CC(=O)NC(=O)C1	-0.5	-0.11
CCOC(=O)C1=C(c2ccccc2)OC(N)=C(C#N)C1c1ccncc1 (stereo unspecified)	-3.9	0.63
O=c1cc(Cn2ncc(Cl)c(Cl)c2=O)[nH]c(=O)[nH]1	0.3	x
COc1ccc(N2C(=NC(=O)CCCC(=O)O)SC3CS(=O)(=O)CC32)cc1 (stereo unspecified)	-0.1	-1.1
O=C(Nc1ccc(Cl)cc1)Nc1ccc(N2CCOCC2)cc1	0.9	0.035
CCn1c(O)c(C=NCCn2c(C)nc3ccccc32)c(=O)n(CC)c1=S	1.9	x
COc1cc(C(=O)NNC2=CC(=O)CC(C)(C)C2)cc(OC)c1OC	-0.7	x
COc1cccc(CNC(=O)c2cn(C)c(=O)c3c2c2ccccc2n3C)c1	0.5	-0.47
Cc1nc2nc(C(F)(F)F)cc(=O)n2[nH]1	x	-1.5
COc1ccc(C=Nc2ccc(OCC(O)CN3C(C)CCCC3C)cc2)cc1OC (stereo unspecified)	2.4	x
CCOC(=O)N1CCC(NC(=O)CN2C(=O)CCSc3ccccc32)CC1	0.7	0.89
CCOC(=O)C1CCCN(S(=O)(=O)Cc2ccccc2Cl)C1 (stereo unspecified)	1.3	-0.84

From PubChem BioAssay
